CDC25B CDK2 inh – primary biochemical HTRF screen for blockers of M-phase inducer phosphatase 2 binding to CDK2/cyclin A; P30305+P24941; HTRF CDC25B-CDK2/CyclinA binding, anti-His/anti-Flag; active compounds read high; z-score (test concentration not listed); actives 0.72% (n = 94,000);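 also: score is relative to mean and SD of negative controls; strong numbers were not always called active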
HIV TAR-Tat – TAR RNA-Tat peptide displacers, HIV-1, primary screen, biochemical, FRET, FAM/TAMRA-labeled Tat | actives 0.6% (n = 100,000) | HIV-1 TAR RNA, Tat peptide displacement FRET; active compounds read high | z-score (no concentration beside the values);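 also: score is relative to mean and SD of negative controls; some compounds called inactive have numbers as strong as hits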
Active calls of the source: *; x = no result given.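 The calls were made as follows: active = z-score from 3 up in half or more of its runs; inactive = the rest.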

SMILES	CDC25B CDK2 inh	HIV TAR-Tat
O=C1Nc2ccccc2C(O)(C(=O)NC2CCCCCCC2)N1c1ccccc1 (stereo unspecified)	0.23	x
COc1ccc(-c2cc(C(F)(F)F)c(C#N)c(SCC(=O)O)n2)cc1	-1.2	1.5
CC1=C(C(=O)OC(C)C)C(c2ccccc2C)n2c(nc3ccccc32)N1 (stereo unspecified)	-0.58	1.2
O=C(NCCCN1CCOCC1)C(=O)NCc1n[nH]c(=O)c2ccccc12	x	1.3
O=S(=O)(Nc1ccc2c(c1)N(S(=O)(=O)c1ccc(F)cc1)CCC2)c1cccc(Cl)c1	x	0.88
COC(=O)c1sccc1S(=O)(=O)N1c2ccccc2NC(=O)CC1C (stereo unspecified)	-1.3	x
Cc1ccc(/C(=N\N(C)C)C(=O)C(F)(F)F)cc1	-0.86	x
O=C(CSc1nc2ccccc2c(=O)[nH]1)Nc1ccc(F)cc1F	x	1.7
CCOCCCNc1nc(NCc2ccccc2)c2cnn(C)c2n1	x	0.96
C=CCn1c2ccccc2c2nnc(SCC(=O)Nc3nnc(C(C)C)s3)nc21	-4	1.6
O=C(O)CC1(CC(=O)NCc2ccc(-c3cccs3)cc2)CCCCC1	-1.6	x
CCc1nnc(SCC(=O)Nc2cccc(SC)c2)c2cc3oc(C)cc3n12	x	1.6

Next section (2 carried over from the part before).
SMILES	CDC25B CDK2 inh	HIV TAR-Tat
O=C(O)CC1(CC(=O)NCc2ccc(-c3cccs3)cc2)CCCCC1	-1.6	x
CCc1nnc(SCC(=O)Nc2cccc(SC)c2)c2cc3oc(C)cc3n12	x	1.6
O=C(C1CC1)N1CCc2cc(Br)cc(S(=O)(=O)NCc3ccc(Cl)cc3)c21	1.1	x
O=C(Nc1c(F)cc(F)cc1Br)c1ccccc1F	-1.1	x
O=c1oc2cc3occ(-c4ccc(Br)cc4)c3cc2c2c1CCC2	-1.2	x
Cc1sc2ncn(Cc3c(F)cccc3Cl)c(=O)c2c1C	-1	0.01
Cc1nc(SC/C=C/c2ccccc2)c2c(=O)n(C)c(=O)n(C)c2n1	-2	x
C1CCN(c2nc3nonc3nc2N2CCCC2)C1	-1.1	0.35
COc1ccc(Cn2c(CO)cnc2SCc2ccc(Cl)cc2)cc1	x	1.6
CC1CCCN(c2cc(NC(C)C)c3c4c(onc24)-c2ccccc2C3=O)C1 (stereo unspecified)	-0.58	0.41
COC(=O)c1cc2oc(C)cc2n1Cc1nc(-c2ccccc2)oc1C	0.65	1.1
O=C(Nc1ccccc1Cl)c1cc2cc(Br)ccc2oc1=O	-2.3	x
CCCCS(=O)(=O)N1CCC(c2nnnn2-c2ccc(F)cc2)CC1	-1.4	-0.02
CCCC(=O)Nc1nnc(SCc2cc(=O)c3cccc(F)c3[nH]2)s1	x	1.4
O=C1CCCC2=C1C(c1cccs1)N(C(=O)NC1CCCC1)c1ccccc1N2 (stereo unspecified)	x	2
O=S1(=O)N=CN(Cc2ccc(Br)cc2)c2ccccc21	x	1.3
Cc1cc(C)c2c(=O)[nH]n(C(C)C)c2n1	-2.2	3.4
Cn1nc(C(=O)Nc2cccnc2)c2c1-c1ccccc1OC2	-0.7	2.1
CC1=C(c2ccc(C)c(C)c2)S(=O)(=O)NC1=NCc1ccccc1F	-7.7	1.4
Cc1nc(-n2cccc2)sc1C(=O)N1CCOCC1	-1.2	2
Cn1c(=O)c2c(SCC(=O)NC3CCCC3)nc(-c3ccc(Cl)cc3)nc2n(C)c1=O	x	0.55
O=C(NCCC1=CCCCC1)NCc1noc2ccccc12	x	-0.56
O=C1C2C3c4ccccc4C(c4ccccc43)C2C(=O)N1CCO (stereo unspecified)	-1.3	0.01
Cc1nonc1NC(=O)Nc1ccncc1	9.2*	-0.99
O=c1oc2c3c(ccc2c2ccccc12)OCN(CCc1ccccc1F)C3	-0.51	0.33
O=C(Nc1ccccc1Br)c1c(O)c2cccc3c2n(c1=O)CCC3	x	1.3
CC(C)Cc1cc2c(s1)SCC(=O)N2CC(=O)NC1CCCC1	x	-0.38
CN(C1CCCCC1)S(=O)(=O)N1CCCC(C(=O)N2CCC(C(N)=O)CC2)C1 (stereo unspecified)	x	5.1
COc1ccc(CNC(=O)C2(O)c3ccccc3NC(=O)N2c2cccc(OC)c2)cc1 (stereo unspecified)	-0.19	x
CSCC[C@@H](C=O)NC(=O)[C@H](CC(C)C)NC(=O)[C@H](CC(C)C)NC(C)=O	x	-0.06
CC(C)c1ccc2c(c1)-c1ccccc1S(=O)(=O)N2CC(=O)NC1CC1	-2	-0.43
CCCN=C1NS(=O)(=O)C(c2ccc(C)c(C)c2)=C1C	-1.7	0.58
O=C(CCCc1nc2cccnc2n1C1CCCCC1)Nc1ccc(F)cc1	x	0.1
CCN1CCCC1CNC(=O)c1nn(C)c2c1CS(=O)(=O)c1ccccc1-2 (stereo unspecified)	0.11	1.4
O=C(Nc1nnc(-c2ccc(F)cc2)o1)c1ccc(S(=O)(=O)N2CCc3ccccc3C2)cc1	0.57	x
O=C(O)CCN1C(=O)C(=O)/C(=C(/O)c2ccccc2)C1c1ccccc1F (stereo unspecified)	-1.7	x
Cc1ccc(NS(C)(=O)=O)cc1[N+](=O)[O-]	-1.3	x
COCCOC(=O)C1=C(C)NC2=C(C(=O)CC(C)(C)C2)C1c1ccc(C(=O)OC)cc1 (stereo unspecified)	-1.2	0.07
Clc1ccccc1CN1CCN(Cc2ccncc2)CC1	1.7	x
c1ccc(-c2cn3nc(C4CC4)sc3n2)cc1	-0.4	1.2
CCOc1ccc(-n2c(C)c(C)c3c2ncn2nc(-c4cccs4)nc32)cc1	-2.4	0.42
COC(=O)C1=C(C(=O)OC)C2(OC1c1ccc(C)c(Cl)c1)C(=O)c1ccccc1C2=O (stereo unspecified)	-0.41	x
Clc1cccc(C2C=C(c3cccnc3)Nc3nc4ccccc4n32)c1 (stereo unspecified)	x	-4.9
CCOC(=O)c1c(N)n(-c2ccccc2)c2nc3ccccc3nc12	-4.7	x
Cc1cc2cc(CCNC(=O)C3CCCC3)c(=O)[nH]c2cc1C	-0.92	x
CCSc1ncc(Cl)c(C(=O)N(Cc2ccc(C(C)(C)C)cc2)C2CCS(=O)(=O)C2)n1 (stereo unspecified)	-1.3	1.7
N#Cc1nc(COc2cccc(Cl)c2)oc1NCc1cccnc1	-1.8	-0.95
CN(C1=C(Cl)C(=O)OC1OC(=O)c1ccco1)c1ccccc1 (stereo unspecified)	2.2	x
COc1cccc(CNCCSc2nnnn2C)c1OCc1ccccc1	-0.54	0.23
Cc1cc(=O)oc2cc(NS(=O)(=O)c3cccc4nonc34)ccc12	-1.3	x

Brought forward from above: six compounds; new compounds follow.
SMILES	CDC25B CDK2 inh	HIV TAR-Tat
Cc1cc2cc(CCNC(=O)C3CCCC3)c(=O)[nH]c2cc1C	-0.92	x
CCSc1ncc(Cl)c(C(=O)N(Cc2ccc(C(C)(C)C)cc2)C2CCS(=O)(=O)C2)n1 (stereo unspecified)	-1.3	1.7
N#Cc1nc(COc2cccc(Cl)c2)oc1NCc1cccnc1	-1.8	-0.95
CN(C1=C(Cl)C(=O)OC1OC(=O)c1ccco1)c1ccccc1 (stereo unspecified)	2.2	x
COc1cccc(CNCCSc2nnnn2C)c1OCc1ccccc1	-0.54	0.23
Cc1cc(=O)oc2cc(NS(=O)(=O)c3cccc4nonc34)ccc12	-1.3	x
NS(=O)(=O)c1ccc(NNC(=O)CC2(CC(=O)O)CCCC2)cc1	-2	x
N#CC1C(=S)N=C2CCCCC2=C1c1cccs1 (stereo unspecified)	-1.3	x
CCOC(=O)c1cnc2ccc(C(F)(F)F)cn2c1=O	-1.9	x
CC(C)Nc1nc(-c2ccccc2Cl)nc2ccccc12	-0.58	0.93
CC(=O)Nc1ccc2nc(C)sc2c1	-0.68	1.2
c1ccc(C2=Nc3cccc4cccc(c34)N2)cc1	-2.1	0.32
CCN(CC)c1ccc(NS(=O)(=O)c2ccc3c(c2)NC(=O)CC(C)S3)c(C)c1 (stereo unspecified)	x	0.3
C=CCc1ccc(O)c(-c2ccc(O)c(CC=C)c2)c1	x	2.1
CN(Cc1ccccc1)C(=O)Cn1cnc(S(=O)(=O)N2CCCC2)c1	x	1.2
Cc1ccc(-c2noc(-c3nnn(-c4ccc(C)cc4C)c3C)n2)cc1	x	1.1
CN(C)c1ccc(-c2nc(-c3ccc4c(c3)ncn4C3CCCC3)no2)cc1	x	2.3
CC(C)CNc1ncnc2c1c(-c1ccccc1)cn2-c1ccc(F)cc1	-0.36	x

Sorted by molecular weight (low to high): five of the compounds above.
SMILES	CDC25B CDK2 inh	HIV TAR-Tat
c1ccc(C2=Nc3cccc4cccc(c34)N2)cc1	-2.1	0.32
N#CC1C(=S)N=C2CCCCC2=C1c1cccs1 (stereo unspecified)	-1.3	x
CC(C)Nc1nc(-c2ccccc2Cl)nc2ccccc12	-0.58	0.93
Cc1ccc(-c2noc(-c3nnn(-c4ccc(C)cc4C)c3C)n2)cc1	x	1.1
NS(=O)(=O)c1ccc(NNC(=O)CC2(CC(=O)O)CCCC2)cc1	-2	x

Going on with the list:
SMILES	CDC25B CDK2 inh	HIV TAR-Tat
COc1cc(OC)c(Nc2ncnc3sc(C(=O)O)c(C)c23)cc1Cl	x	4.2*
Cc1ccc(S(=O)(=O)Nc2nn(CC(C)C)c3nc4ccccc4cc23)cc1	0.45	2.2
COc1cccc(N2C(=O)c3cccnc3C2Nc2ccc(Br)cc2)c1 (stereo unspecified)	-2.3	0
COc1ccc(O)c(C2=NN3C(C2)c2ccccc2OC3c2ccc(F)cc2)c1 (stereo unspecified)	-0.12	0.43
CC1CCCCN1CCNC(=O)C1=Cc2cc(Br)ccc2OC1 (stereo unspecified)	x	0.22
Clc1ccc(-c2nc3cc(NCc4cccs4)ccc3o2)cc1	-1.2	0.93
COC(=O)C1=C(C)NC2=C(C(=O)CCC2)C1c1cc(Cl)c(O)c(OC)c1 (stereo unspecified)	-0.81	0.68
CCn1c(=O)n(CC)c2cc(N3CCCC3)c(NC(=O)c3ccco3)cc21	-1.1	0.41
Cc1ccc(-c2n[nH]c(=O)c3c2CCCC3)cc1S(=O)(=O)Nc1ccc2c(c1)OCCO2	0.96	-2.2
O=C(CNS(=O)(=O)c1cccs1)N1CCN(c2ncccn2)CC1	x	-0.65
COCCN1C(=O)c2[nH]nc(-c3cc(C)ccc3O)c2C1c1ccc(OC)c(OC)c1 (stereo unspecified)	0.63	0.89
Cc1nn2c(=O)cc(CSc3nc4ccc(NC(=O)c5cccs5)cc4s3)nc2s1	x	-0.88
CC(C)OCCCNC(=O)CCC(=O)N1CCSc2ncccc21	0.21	2.5
O=S(=O)(c1ccc(-c2cc(C(F)(F)F)on2)s1)N1CCCc2ccccc21	x	1.3
O=C(NCc1ccco1)c1cnc2sc(N3CCCC3)nn2c1=O	x	0.5
Cc1ccc(C)c(N2CCN(S(=O)(=O)c3ccc(-n4cccn4)cc3)CC2)c1	x	0.65
Cc1csc2nc(-c3ccc(NS(C)(=O)=O)cc3)cn12	x	0.21
O=C(c1cnc2sc(N3CCCC3)nn2c1=O)N1CCN(c2ccccc2)CC1	x	0.5
CCOC(=O)Cn1cnc([N+](=O)[O-])n1	0.42	0.51
O=c1cc(CSc2nnc3c(n2)[nH]c2ccccc23)nc2sccn12	x	2
Cc1nn2c(=O)cc(COc3ccc(Cl)cc3)nc2s1	-0.25	-1.2
CCSc1ccc(/C(N)=N/OC(=O)C(C)(C)C)cn1	-1.7	x
O=C(Cn1cnc2c(nnn2Cc2ccc(Cl)cc2)c1=O)NCC1CCCO1 (stereo unspecified)	0.34	0.87
CN1CCN(CCNC(=O)C2CCN(c3ncnc4c3nc3n4CCCCC3)CC2)CC1	x	1.4
COc1ccc(Cn2cc(C(=O)c3ccc(Cl)cc3)c(=O)c3cc4c(cc32)OCO4)cc1	-4.7	1.3
C=CCN1C(C(=O)c2ccccc2)=C(OC(=O)c2ccccc2)c2ccccc2S1(=O)=O	-2.5	x
COc1ccc(OC)c(S(=O)(=O)N(C(=O)c2cccnc2)c2ccc3oc(=O)sc3c2)c1	-3.9	0.49
CSc1ccc(C2c3c(oc4ccc(Cl)cc4c3=O)C(=O)N2CCCN(C)C)cc1 (stereo unspecified)	-1.1	0.96
CCOC(=O)c1c(C)nc2n(CCN3CCCCC3)c3ccccc3n12	-2.2	-0.58
Cc1nn(C)c(C)c1CNC(=O)Nc1ccccc1	x	-0.99
CCOC(=O)c1c(NC(=O)NCCOC)sc2c1CC(C)(C)OC2	-0.77	-0.08
CC1=C(c2cccc(Br)c2)S(=O)(=O)NC1=NCc1ccccc1C	-0.6	1.9
Cc1cc(N2CCCC2)n2nc(C(F)(F)F)c(-c3ccc(F)cc3)c2n1	-1.4	0.72
COc1ccc2cc3cc(C(=O)N4CCC(C(N)=O)CC4)oc3nc2c1	-0.77	x
COc1ccc([N+](=O)[O-])c(OC)c1C(=O)NCCCn1ccnc1	-2.7	x
CCc1nnc2sc(-c3ccc(F)cc3)nn12	-1.5	-0.81
O=C(CCc1nnc2ccc(NCc3ccco3)nn12)N1CCCCC1	x	-0.69
S=C(Nc1ccc(N2CCOCC2)nc1)Nc1cc(Cl)ccc1Cl	-0.83	x
CCn1c[n+](CC(O)COc2ccccc2C)c2ccccc21 (stereo unspecified)	1.4	2.2
Nc1c(-c2nc(-c3ccc(F)cc3)no2)nnn1-c1ccc(Cl)cc1	x	0.78
O=C(CCc1nnc2ccc(NCc3ccccc3)nn12)NCC1CCCO1 (stereo unspecified)	x	1.9
CCOC(=O)CC1(NC(=O)NCc2cc(C)n(-c3ccc(F)cc3)c2C)CCCCC1	x	-3.3
